gsp antag – qHTS for Antagonists of gsp, the Etiologic Mutation Responsible for Fibrous Dysplasia/McCune-Albright Syndrome: qHTS. actives 0.4% (n = 340,000). Potency, µM (top dose mostly 76.9 µM), inactives show at the highest dose activity change, negative = inhibition, actives largely listed as inhibitors. gsp-mutant cells, cAMP HTRF, 30 min; control for the full effect not named in the record; active = falling curve of any shape with a large fitted effect; inconclusive = falling curve, mostly with a smaller effect; inactive = flat or rising curve; cell line not stated here;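 also: intracellular cAMP measured with PDE inhibitor Ro 20-1724 present during compound exposure; potency is read from the fitted curve at half-maximal effect; % is scaled to controls: 0 for no effect and ±100 for the full control effect; nearly all actives have a fitted effect of over 65% in size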
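G418-selected cells were plated in DMEM/10% FBS for 16-24 h at 37C, then treated with compounds plus the PDE inhibitor […] (300 uM solution added) for 30 min at 37C. Intracellular cAMP was measured by HTRF after 30 min lysis at room temperature.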
ClpP mod – qHTS Assay for Activators of ClpP | ATP-dependent Clp protease proteolytic subunit (Bacillus subtilis (strain 168)), P80244 | purified B. subtilis ClpP, FRET peptide cleavage, 20 min | Potency, µM (titrated, usually from 57.5 µM), for the others: at the top dose activity change, negative = active | actives 1.9% (n = 340,000) | AID 651965, 2013; active = well fitted falling curve with a large enough effect; inconclusive = small, poorly fitted or top-dose-only effect; inactive = no such curve, though single readings can be large or run the other way; also: potency is read from the fitted curve at half-maximal effect; the source files actives as falling curves though it sought activators and does not explain the sign; nearly all actives have a fitted effect of over 65% in size; many hits overshoot -100%
Target sequence (P80244 whole entry, looked up): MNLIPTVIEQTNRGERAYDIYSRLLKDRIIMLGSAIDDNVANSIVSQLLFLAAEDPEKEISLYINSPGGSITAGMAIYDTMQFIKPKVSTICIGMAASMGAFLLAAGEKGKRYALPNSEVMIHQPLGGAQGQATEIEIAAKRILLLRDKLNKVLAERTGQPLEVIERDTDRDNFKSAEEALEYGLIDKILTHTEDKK
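ClpP 10 microg/mL final, pH 8 Tris/KCl buffer with BSA, glycerol, Tween-20; compound pinned in; FRET-FV substrate; RT 20 min; Ex320/Em430; ΔFRET vs ADEP 5.8 microM, DMSO, no enzyme.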
TRPML1 inh – qHTS for Inhibitors of the Human Mucolipin Transient Receptor Potential 1 (TRPML1). TRPML1-inducible cells, Ca2+ dye fluorescence, FDSS; stronger effect = lower value; inhibition of EC80 agonist-evoked calcium signal. activity change, negative = inhibition, % (no concentration beside the values). actives 0.02% (n = 390,000). Mucolipin-1 (Homo sapiens), Q9GZU1; in the data active means activity change below about -50%; inconclusive means about -30% to -50%; inactive means above about -30%;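 also: stimulus is agonist 54-4 at its EC80 concentration; % is scaled to controls: 0 for no effect and ±100 for the full control effect; compound concentration not given in the record; the text of the record puts the active cut at -80%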
Target sequence (Q9GZU1 whole entry, looked up): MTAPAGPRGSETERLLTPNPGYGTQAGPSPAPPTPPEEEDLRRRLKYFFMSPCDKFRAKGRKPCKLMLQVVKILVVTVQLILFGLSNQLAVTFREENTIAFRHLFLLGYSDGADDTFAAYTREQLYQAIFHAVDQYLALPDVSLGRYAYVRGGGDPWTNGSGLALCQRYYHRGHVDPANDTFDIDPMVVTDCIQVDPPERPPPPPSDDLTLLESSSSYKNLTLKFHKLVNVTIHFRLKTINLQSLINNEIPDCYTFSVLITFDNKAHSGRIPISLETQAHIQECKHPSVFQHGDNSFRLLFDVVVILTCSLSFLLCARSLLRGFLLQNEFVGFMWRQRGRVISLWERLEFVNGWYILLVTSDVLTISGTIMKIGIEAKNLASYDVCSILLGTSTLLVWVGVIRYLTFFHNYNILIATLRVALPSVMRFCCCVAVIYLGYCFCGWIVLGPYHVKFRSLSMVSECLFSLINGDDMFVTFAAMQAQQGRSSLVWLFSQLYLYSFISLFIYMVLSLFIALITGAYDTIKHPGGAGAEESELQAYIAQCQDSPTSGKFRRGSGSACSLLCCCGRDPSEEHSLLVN
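Calcium fluorescence in TRPML1-DL cells induced overnight with Tet: a 110 s read after compound pin addition, then a 110 s antagonist read after challenge with 54-4 at 4 uM final (EC80).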
Menin MLL FP FL – qHTS Assay for Inhibitors Targeting the Menin-MLL Interaction in MLL Related Leukemias: Competition With Fluorescein Labeled MLL-derived Peptide; Fluorescence polarization, fluorescein-MLL peptide displacement from menin; FP activity change, % at 61.4 µM; 290,000 tested, under 10 active; AID 1766, 2009; inconclusive = falling polarisation curve, or a change in total fluorescence; inactive = total fluorescence flat and polarisation flat or rising; no compound was filed as active; the % refers to the polarisation; negative = inhibition;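 also: % of control where 0% means no effect; inhibitors lower the polarisation; unlabelled MLL peptide was the positive control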
gsp ag – qHTS for Agonist of gsp, the Etiologic Mutation Responsible for Fibrous Dysplasia/McCune-Albright Syndrome: qHTS | gsp mutant cells, cAMP HTRF, 30 min; control for the full effect not named in the record | Potency, µM (doses to about 76.9 µM), for the others: at the highest dose activation (cAMP increase), hits mostly activators | actives 0.13% (n = 340,000) | AID 624287, 2012; active = well fitted activation curve with a large enough effect; inconclusive = small, poorly fitted or top-dose-only effect, or another doubt; inactive = no such curve, though single readings can be large or run the other way; cell line not stated here;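 also: phosphodiesterase inhibitor Ro 20-1724 added with compounds to block cAMP breakdown; potency is read from the fitted curve at half-maximal effect; nearly all actives have a fitted effect of over 60% in size; about a fifth of the inactives were tested at one dose only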
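Cells in DMEM/10% FBS with G418 were pretreated with compounds in DMSO plus […] (300 uM stock) for 30 min at 37C. cAMP was measured by HTRF (cAMP-d2 plus anti-cAMP antibody-K) after 30 min at room temperature.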
TRPML1 agonist – qHTS for Agonists of the Human Mucolipin Transient Receptor Potential 1 (TRPML1). Mucolipin-1 (Homo sapiens), Q9GZU1. TRPML1-expressing cells, Ca2+ dye fluorescence, FDSS; host cell line not named in the record; reference of the full effect not given here. activation, % (no concentration beside the values). actives 0.12% (n = 410,000). AID 624414, 2012; in the data active = activation above about 50%; inconclusive = about 30% to 50%; inactive = below about 30%; also: 0% is about no effect; the text of the record puts the active cut at 80%
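Agonist activity was taken from a 110 s kinetic Ca2+ dye read on the FDSS after pinning compounds onto TRPML1-DL cells. The cells were seeded at 1,500/well with Tet inducer, incubated about 16 h, then dye-loaded at room temperature.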
Starred values were filed as active, the others as inactive; ? = inconclusive; · = no result given; & = joins results of further samples; [ ] = another dose, or the depositor's remark.

Results follow in this order: gsp antag, ClpP mod, TRPML1 inh, Menin MLL FP FL, gsp ag, TRPML1 agonist
- O=C([C@H](Cc1ccc(O)cc1)n1cc(CCO)nn1)N1CCNCC1
    6%, 0.0%, 1, 0.4, 7%, -0.7
- O=C(COC(=O)CN1C(=O)C2CCCCC2C1=O)Nc1ccc(F)c(F)c1F (stereo unspecified)
    7%, 1.2%, -9, ·, -6%, 1.7
- COc1ccccc1CNC(=O)c1cccc(N(C)C)c1
    -2%, 12%, 8, 3.0, -25%, 1.0
- COc1ccc(OC)c(/C(C)=N\NC(=O)c2cc3cc(Cl)ccc3n2C)c1
    -9%, -8.5%, ·, 4.3, -34%[inhibitor], ·
- COc1ccc(CCNC(=O)c2cccc(S(=O)(=O)N3CCCCCC3)c2)cc1
    -13%, -0.6%, 10, ·, -20%, -0.1
- CCC(=O)NN1CCN(c2ccncc2S(=O)(=O)N2CCCCC2)CC1
    -4%, 0.5%, -12, ·, 17%, 0.3
- CSc1ccc(Cn2nnc(C(=O)NCc3ccccc3)c2N)cc1
    1%, 2.1%, 5, 3.9, ?, 11
- O=C(CCNS(=O)(=O)c1ccc(Cl)cc1)Nc1ccncc1
    3%, -2.1%, 4, -1.0, 1%[15.4 µM], -0.5
- CCCOC(=O)Nc1nc(-c2ccc(C)cc2)c(C)s1
    3%, ·, -6, -1.1, -7%[15.4 µM], 2.6
- COc1cccc(-c2ccc(-c3noc(-c4ccccc4Br)n3)c(OC)n2)c1
    ·, ?, -13, ·, ·, -0.5
- O=C(NC1Cc2ccccc2C1)c1cc(COc2ccc(F)cc2Cl)on1
    2%, -0.3%, -15, -3.6, -12%, -0.2
- Cc1ccc(NC(=O)CCc2ccc(C)o2)c(Br)c1
    5%, 0.6%, 17, 2.7, -2%[15.4 µM], 1.8
- O=C(CN1CCN(S(=O)(=O)c2cccs2)CC1)NCC1CCCCC1
    -4%, 0.8%, -8, ·, 24%, -0.5
- O=C(CSc1ccc(-c2ccccc2)nn1)N1CCOCC1
    11%, -1.5%, 16, -1.3, 9%, -0.5
- CCNC(=O)c1ccc(CSc2nc3cccnc3n2Cc2ccc(OC)cc2)cc1
    ·, 3.7%, -1, ·, ·, 0.8
- O=C(c1ccccn1)N(Cc1ccco1)C1(C(=O)Nc2ccc(Br)cc2)CCCCC1
    ·, 2.9%, 12, ·, ·, 1.6
- CCOc1c(C)cnc2c1c(=O)n(Cc1c(F)cccc1Cl)c(=O)n2C
    -8%, -25%, -16, -3.7, 26%, 3.3
- COc1ccccc1OCC(O)CN1C(=O)NC(C)(C)C1=O (stereo unspecified)
    7%, -3.8%, -11, 4.2, -106%[inhibitor], -0.2
- CCC(C)(C)n1nnnc1C(c1cc2ccc(OC)cc2[nH]c1=O)N1CCCCC1 (stereo unspecified)
    -3%, -27%, 1, 0.2, -69%[inhibitor], -1.2
- CC(C)c1ccc(NC(=O)Cn2cc(S(=O)(=O)N3CCN(c4ccccc4F)CC3)c3ccccc3c2=O)cc1
    ·, -18%, -1, ·, ·, 0.0
- COc1ccc(C(=O)Nc2cccc(C(=O)O)c2)cc1S(=O)(=O)N1CCCC1
    12%, -1.1%, -11, 0.2, -24%, -0.1
- COc1ccc(C(=O)NNC(=O)CSc2nc(C(C)C)nc3ccccc23)cc1
    9%, ·, 4, 0.7, 30%, -0.2
- Cc1cccc(N2C(=O)SC(SC(=Nc3ccccc3)Nc3ccccc3)C2=O)c1 (stereo unspecified)
    4%, -2.3%, 4, 5.2, -2%, 4.2
- O=C1[C@@H]2C(Cc3ccc(O)cc3)NC3(C(=O)Nc4ccc(F)cc43)[C@@H]2C(=O)N1c1ccc(F)cc1 (stereo partly specified)
    -10%, -3.0%, -27, 21, ?, 0.6
- O=C(CCN1N=C(c2ccccc2)CCC1=O)NCCc1ccc(Cl)cc1
    ·, -3.6%, 1, ·, ·, -0.5
- O=C(c1ccccc1-c1nc(-c2ccccc2Cl)no1)N1CCOCC1
    8%, ·, -4, -0.1, -5%, -0.6
- O=C(N1CCOCC1)N1CCN(c2nc(-c3ccc(F)cc3)cs2)CC1
    -19%, 1.1%, 9, 3.9, -12%, 0.7
- CCCn1c(N)c(N(CCOC)C(=O)CSc2c(Cl)cccc2Cl)c(=O)[nH]c1=O
    9%, -0.9%, -3, ·, -2%, -0.5
- CNS(=O)(=O)c1cc(-c2nnc(Nc3ccc(NC(C)=O)cc3)c3ccccc23)ccc1C
    -17%, -0.4%, -8, -0.2, 2%[15.4 µM], -1.1
- COc1ccc(C(=O)Nc2ccc(S(=O)(=O)Nc3onc(C)c3C)cc2)c(OC)c1
    3%, ·, -12, -0.6, 88%[15.4 µM], 0.1
- COc1ccc2[nH]c3c(=O)n(Cc4ccncc4)cnc3c2c1
    -10%, 3.9%, -7, 1.9, 30%, -0.3
- COc1ccc(OC)c(/C=C2\SC(=S)N(Cc3cccnc3)C2=O)c1
    -2%, -0.3%, -9, ?, 12%, 5.4
- O=c1cc(N2CCc3ccccc32)[nH]c(=O)n1-c1ccccc1
    -3%, -1.5%, -1, 0.5, -21%, 0.3
- C=CCN(C(=O)CSc1nc2c(sc3ccccc32)c(=O)n1CCN(CC)CC)c1ccccc1
    -20%, -4.2%, 14, 1.4, -8%[15.4 µM], -0.7
- Cc1ccc(NC(=O)CSc2nc3c(oc4ccccc43)c(=O)n2Cc2ccco2)cc1F
    ·, -0.4%, 0, ·, ·, -0.4
- COc1ccc(CCc2nnc(CCC(=O)N(C)Cc3ccnc4ccccc34)o2)cc1
    ?, ·, 4, 1.2, 8%, -0.6
- CC(C)OCC(O)CCc1n[nH]c(=S)n1-c1ccccc1 (stereo unspecified)
    4%, 0.5%, -5, 1.1, -59%[inhibitor], -0.4
- CCc1ncc(CN2CCCC(C(=O)Nc3cccc(-c4cccc(C)c4)c3)C2)cn1 (stereo unspecified)
    ?, -1.6%, -7, ·, 13%, 0.3
- CCN(CC(=O)Nc1ccc(C)c(F)c1)CC(=O)NC(C)(C)C
    -1%, ·, 38, 0.2, ?, 0.1
- O=C(N/N=C\c1ccccc1)c1ccccc1-n1cccc1
    ·, ·, -8, -1.8, 10%[15.4 µM], 0.7
- Cc1ccc(C)c(NCC(O)c2ccccc2)c1 (stereo unspecified)
    ·, ·, -3, 0.9, -6%[15.4 µM], 0.3
- CCN(c1ccccc1)S(=O)(=O)c1cccc(C(=O)Nc2cccc(C)n2)c1
    ·, -0.2%, -10, ·, -46%[inhibitor], 0.8
- Cn1cccc1CC(=O)NNC(=S)Nc1ccc(Cl)cc1
    -6%, ·, -7, 2.8, 3%[15.4 µM], 1.3
- CCOc1ccccc1OCC(=O)Nc1cc(S(=O)(=O)N2CCCCC2)ccc1N1CCN(CC)CC1
    -3%, -2.3%, -2, ·, -12%[15.4 µM], 0.4
- O=S(=O)(c1ccc(F)cc1)N1CCN=C1SCc1cccnc1
    -3%, -0.7%, 3, -5.7, -28%, 0.6
- COc1ccc(-c2sc(Nc3ccccc3)n[n+]2-c2ccc(F)cc2)c(C)c1C
    -14%, 2.6%, -4, 1.3, -5%, 2.2
- CC(=O)c1csc(Nc2ccccc2Cl)n1
    6%, ·, -7, 7.3, 11%[15.4 µM], 0.9
- CN(C1CCCCC1)S(=O)(=O)c1ccc(S(=O)(=O)N2CCN(C(=O)c3ccccc3F)CC2)cc1
    -2%, 2.0%, 5, -1.7, ?, -0.5
- Cc1ccccc1N(C(=O)c1csnn1)C(C(=O)NC(C)(C)C)c1ccncc1 (stereo unspecified)
    -24%, 0.0%, 12, 2.9, -49%[inhibitor], 2.1
- COc1ccc(OC)c(S(=O)(=O)N2CCC(C(=O)NC3CCCCC3)CC2)c1
    5%, ·, -5, 2.4, -4%[15.4 µM], 0.2
- CCn1c(-c2ccc3ncccc3c2)n[nH]c1=S
    -4%, -1.2%, 11, 2.7, 27%, -0.5
- O=C(c1ccc2c(c1)OCO2)c1cn(Cc2ccc(F)cc2)c2ccccc2c1=O
    ·, -5.6%, 16, ·, ·, 3.3
- Cc1cccc(C(C)C)c1NC(=O)c1ccc(OCC2CCCO2)cc1 (stereo unspecified)
    7%, -1.7%, 5, ·, -13%, 0.4
- Cc1nc2ccccc2n1C1CCN(CC(=O)NCc2ccc(F)cc2)CC1
    -6%, 0.2%, -12, -1.1, -3%, 0.4
- CCC(Sc1ncccc1C(=O)O)C(=O)N1CCOCC1 (stereo unspecified)
    13%, 1.4%, 4, 2.1, 0%, -0.8
- O=C(N1CCCCC1)C1(c2ccccc2)CCCCC1
    -1%, ·, 7, 1.1, -35%[inhibitor], -0.5
- OC(COC(c1ccc(F)cc1)c1ccc(F)cc1)CN1CCCC(C(F)(F)F)C1 (stereo unspecified)
    5%, 1.0%, 14, 0.7, -1%[15.4 µM], -1.8
- Cc1ccc(C2CC2C(=O)NNC(=S)Nc2cccc(C)c2)cc1 (stereo unspecified)
    -8%, 0.3%, 11, 0.4, 7%, -0.4
- COC(=O)c1cc(OC)c(OC)cc1NC(=O)c1cc(C(C)(C)C)oc1C
    3%, ·, -3, -1.1, ?, -0.9
- CC(C)c1ccc(NC(=O)Cn2ncn3c(cc4ccccc43)c2=O)cc1
    -7%, 4.0%, 12, 3.8, -16%, 0.0

Continuation:
Results follow in this order: gsp antag, ClpP mod, TRPML1 inh, Menin MLL FP FL, gsp ag, TRPML1 agonist
- Cc1cn2c(N)c(C=C3C=C(Cl)C(=O)C(Cl)=C3)c(=O)nc2s1
    ?, ·, -1, ?, 7%[15.4 µM], ?
- O=C(O)c1cc(N2C(=O)C3CC=CCC3C2=O)ccc1NCc1cccnc1 (stereo unspecified)
    -3%, 32µM*, 1, 5.2, 14%, 0.6
- COc1cc(NC(=O)CC(C)S(=O)(=O)c2cc3c(cc2C)NC(=O)CO3)cc(OC)c1OC (stereo unspecified)
    17%, 0.6%, 1, ·, 15%, 0.0
- COc1ccccc1CC(=O)N(Cc1ccccc1)c1cccc(C)c1
    -16%, -2.3%, 2, 0.7, 3%, 3.0
- Cc1ccc(NC(=O)CSc2nc3ccccc3c3nc(CCn4cncc4C)nn23)c(C)c1
    12%, -6.5%&-7.5%, 22&6, 3.3, 7%, 0.3&-0.7
- COC(=O)c1sc(N2C(=O)c3oc4cc(C)c(C)cc4c(=O)c3C2c2ccccc2F)nc1C (stereo unspecified)
    ·, -4.2%, 11, ·, ·, 1.1

Screening data deposited in PubChem BioAssay by National Center for Advancing Translational Sciences (NCATS).
